Biofilm kill mix = clotrimazole potentiators killing C. albicans biofilm, primary screen, 4-compound mixtures; C. albicans biofilm persisters + clotrimazole, fluorescence viability; primary screen in compound mixtures of four per well; inhibition, % at 7.6 µM; AID 1242, 2008; 120,000 compounds, 0.02% hits;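 active = inhibition above 30.3% in the primary screen of four-compound pools, then above 30% when the compound was retested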;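 note: compounds exposed to preformed 24 h biofilms for 48 h; the number belongs to the whole pool; some results filed as inactive read as strong as hits; inactives centre near 12; 0% = biofilm with clotrimazole alone and 100% = kill control; retested singly at about 60 µM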
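Assay system: C. albicans biofilms / Medium: RPMI/MOPS medium, pH 7.0 / Schedule: biofilm formation 24 h, compound exposure 48 h, 37 °C / Measured by: Alamar Blue fluorescence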
An asterisk follows results filed as active. These rows are one share of the data; rates above refer to the full screens.

mol,Biofilm kill mix
C[C@@H]1O[C@@H](O[C@H]2[C@H](Oc3cc(O)c4c(c3)O[C@H](c3ccc(O)cc3)CC4=O)O[C@H](CO)[C@@H](O)[C@@H]2O)[C@H](O)[C@H](O)[C@H]1O,5
Cn1ccs/c1=N\C(=O)Nc1ccccc1,12
O=C(CCS(=O)(=O)c1cc(Br)cc2c1N(C(=O)C1CC1)CC2)N1CCN(c2ccccn2)CC1,12
CCc1nnc(NS(=O)(=O)c2ccc(NC(=S)NC(=O)/C=C/c3ccc(F)cc3)cc2)s1,5
Cc1ccccc1C(=O)N[C@H](C(=O)Nc1ccc(Cl)c(Cl)c1)C(C)C,12
Cn1c(=O)c2nc(Cl)c(-c3ccccc3)nc2n(C)c1=O,18
Cc1ccc(NC(=O)c2scc3c2CCCC3)cc1,15
CCOc1ccc(CSCCNC(=S)Nc2ccccc2)cc1,7
CCCCN(CC)CCNC(=O)c1cc2c(=O)[nH]c3ccccc3c2n1C,5
COc1cc(NC(=O)CCCSc2nc(-c3ccco3)cc(C(F)(F)F)n2)cc(OC)c1OC,12
O=c1cc(O)c2sc3nc(C(F)(F)F)c4c(c3c2[nH]1)CCCCC4,-6
O=[N+]([O-])c1ccc(C2=Nc3cc(Cl)ccc3OC2)cc1,19
CCOc1ccccc1N1CCN(CC(=O)N(CC(C)C)c2c(N)n(CC(C)C)c(=O)[nH]c2=O)CC1,7
Cc1ccc(-c2c[n+](CC(=O)Nc3ccc(C)cc3C)c3n2CCC3)cc1,31
CC1Cc2nc(SCC(=O)NCC3CCCO3)n(Cc3ccccc3)c(=O)c2S1 (stereo unspecified),13
N#CCCN(C(=O)COC(=O)c1ccc(S(=O)(=O)Nc2ccccc2)cc1)c1ccccc1,7
CC(=O)N1N=C(c2cccc([N+](=O)[O-])c2)OC1(C)CC(=O)Nc1ccccc1 (stereo unspecified),21
COc1cc(CO)c(Br)cc1OCC(=O)Nc1ccccc1C,22
O=C(OC(C(=O)NC1CCCCC1)c1ccccc1)c1ccco1 (stereo unspecified),9
COc1cc(/C=C2\NC(=S)N(C)C2=O)ccc1O,2
O=C(NCc1ccco1)c1ccc2c(c1)N(Cc1ccc(Cl)cc1)CCS2,14
CCN1C(=O)/C(=C/C=C2/CCCN2C)OC1=S,18
COc1ccc(CCN2C(=O)C(Oc3ccccc3)C2c2ccc3c(c2)OCO3)cc1 (stereo unspecified),16
CSCCC(=O)N1CCCC(CNC(=O)c2ccccc2Cl)C1 (stereo unspecified),9
CC(=O)NCCNC(=O)c1ccc(CSc2ccc(Cl)cc2)cc1,-4
CC(=C\c1ccco1)/C=C1/SC(=S)N(CC(=O)O)C1=O,25
Cn1nc(C(F)(F)F)c(-c2cccc(C(F)(F)F)c2)c1NC(=O)CSCC(=O)O,3
Cc1cccc(CSc2nnc(-c3cnccn3)n2C)c1,8
Cc1cccc(N2C(S)=C(C#N)C(=O)NC23CCCCC3)c1,8
CCOC(=O)NC(=O)COC(=O)CNC(=O)c1cccc(OC)c1,20
c1ccc2nc(-c3ccc4c(c3)OCO4)ccc2c1,9
Cc1c(Cl)cccc1-n1c(SCC(=O)N2CCC(C(=O)O)CC2)nnc1-c1ccncc1,21
Nc1nc2nccc(-c3ccccn3)n2n1,13
Cc1c(C(=O)NCCCN2CCOCC2)oc2ccc(S(=O)(=O)N3CCOCC3)cc12,20
Cc1noc(/C=C/c2cccs2)c1S(=O)(=O)N1CCC(C(=O)NCCCN2CCCC(C)C2)CC1 (stereo unspecified),7
COC(=O)C(NC(=O)CSc1nc(N)cc(=O)[nH]1)c1ccccc1 (stereo unspecified),7
Cc1ccc(CNC(=O)/C=C/c2cccs2)cc1,4
O=C(NCc1ccc2c(c1)OCO2)C1CCN(S(=O)(=O)N2CCCCC2)CC1,16
Cc1ccc(O)c(N=Cc2cc(Cc3ccccc3)cc([N+](=O)[O-])c2O)c1,13
CN1CCN(c2ccc([N+](=O)[O-])cc2C(=O)N2CCCCC2)CC1,9
CCC(C)(C)n1nnnc1C(c1cccnc1)N1CCC(Cc2ccccc2)CC1 (stereo unspecified),16
Cc1nc(Cl)sc1C(=O)NC(C)c1ccc(Cl)cc1 (stereo unspecified),9
CCOC(=O)c1ccc2c(c1)[n+](CC)c(C)n2-c1ccccc1,19
CN(C)c1cccc2c1C(=O)c1ccccc1C2=O,-12
COc1ccccc1CCN=C(N)NS(=O)(=O)c1ccccc1,14
O=C(c1ccc2c(Cl)c3c(nc2c1)CCCC3)N1CCN(c2ccc(F)cc2)CC1,17
Cc1ccc(S(=O)(=O)N2CCCOC2CNC(=O)C(=O)NCCC2=CCCCC2)cc1 (stereo unspecified),18
O=C(Nc1ccc2oc(=O)ccc2c1)c1ccc(-c2ccccc2[N+](=O)[O-])o1,8
O=C(c1ccc(-n2c(SCc3cccc(F)c3)nc3ccccc3c2=O)cc1)N1CCOCC1,19
c1ccc(C2NCCc3ccccc32)cc1 (stereo unspecified),11

Other compounds.
mol,Biofilm kill mix
COc1ccc(CC(=O)NNC(=O)c2ccc(NC(C)=O)cc2)cc1,-16
C=CCc1cccc(/C=N/NC(=O)C(C)Nc2ccc(C)cc2)c1O (stereo unspecified),2
O=C(NCCCN1CCOCC1)C(=O)N/N=C/c1ccc(F)cc1,20
COc1ccc(NC(=O)CSc2ccccc2)cc1S(=O)(=O)N1CCCCC1,12
O=C(CCC1CCCN(C(=O)c2ccoc2)C1)NCc1ccc(F)c(F)c1 (stereo unspecified),2
Nc1n[nH]c(-c2ccc([N+](=O)[O-])cc2[N+](=O)[O-])n1,30
CCOC(=O)C1C(c2ccccc2)N(C)OC1(O)C(F)(F)F (stereo unspecified),3
CC(=O)N1N=C(c2ccccc2O)OC1(C)CC(=O)Nc1ccccc1 (stereo unspecified),7
CC(=O)c1ccc2c(c1)Cc1cc(C(C)=O)ccc1-2,15
CC(OC(=O)CCc1nc2ccccc2c(=O)[nH]1)C(=O)c1ccc(C(C)(C)C)cc1 (stereo unspecified),9
CC(=O)c1c(N2CCN(c3ccccn3)CC2)nc(=S)n(-c2ccccc2)c1C,5
CSCCC(NC(C)=O)C(=O)OCC(=O)N(c1ccccc1)c1ccccc1 (stereo unspecified),7
O=C(O)C(Cc1c[nH]c2ccccc12)N1C(=O)C2C3c4ccccc4C(c4ccccc43)[C@@H]2C1=O (stereo partly specified),24
CC(C)CCNC(=O)CCCc1ccccc1,6
CCOc1ccc(C2CC(=O)N(Nc3ccc([N+](=O)[O-])cc3[N+](=O)[O-])C2=O)cc1 (stereo unspecified),1
CCCCc1nc(NCCO)c(C#N)c2c1CCCC2,20
Cc1nn(CC(=O)NCc2cccnc2)c(C)c1[N+](=O)[O-],8
COC(=O)C1=C(C)NC(=S)NC1c1sccc1C (stereo unspecified),37
CCC(=O)c1ccc(OCc2ccc(C(=O)OC)cc2)cc1,3
COc1ccc(NC(=O)COC(=O)CCNS(=O)(=O)c2ccc(Cl)cc2)cc1,4
Cc1ccc2[nH]c3c(c2c1)CCN1C(=O)OC(C)(C)C31C (stereo unspecified),12
COc1ccc(NC(=O)c2ccc(C#CC(C)(C)O)cc2)cc1,1
O=c1oc2ccc(Cl)cc2cc1-c1nnc(Nc2cccc(C(F)(F)F)c2)s1,11
CC(C)c1ccc(CNc2c([N+](=O)[O-])c(=O)oc3ccccc23)cc1,3
CCn1c(C)c(C(C)=O)c(N2CCN(C(c3ccccc3)c3ccccc3)CC2)nc1=S,18
COc1ccc(CCNC(=O)CS(=O)(=O)c2cn(CC(=O)N3CCCC3)c3ccccc23)cc1OC,21
CC(C)CNC(C)C(=O)Nc1ccc(S(N)(=O)=O)cc1 (stereo unspecified),14
COc1ccc(-c2csc(NC(=O)c3ccccc3S(C)(=O)=O)n2)cc1,17
C/C(=N\OCC(=O)NCC(F)(F)F)c1cc2ccccc2o1,8
O=C(O)CC1SC(N/N=C/c2ccc(Br)cc2)NC1=O (stereo unspecified),9

Quoted at random: 5 records from the list, in no set order.
mol,Biofilm kill mix
CCOc1ccccc1N1CCN(CC(=O)N(CC(C)C)c2c(N)n(CC(C)C)c(=O)[nH]c2=O)CC1,7
N#CCCN(C(=O)COC(=O)c1ccc(S(=O)(=O)Nc2ccccc2)cc1)c1ccccc1,7
C[C@@H]1O[C@@H](O[C@H]2[C@H](Oc3cc(O)c4c(c3)O[C@H](c3ccc(O)cc3)CC4=O)O[C@H](CO)[C@@H](O)[C@@H]2O)[C@H](O)[C@H](O)[C@H]1O,5
O=c1oc2ccc(Cl)cc2cc1-c1nnc(Nc2cccc(C(F)(F)F)c2)s1,11
O=[N+]([O-])c1ccc(C2=Nc3cc(Cl)ccc3OC2)cc1,19

New compounds follow:
mol,Biofilm kill mix
O=C(CSc1ccc2c(c1)OCCO2)NCCc1ccc(Cl)cc1Cl,11
CCCNC(=O)C(=O)N/N=C/c1cccs1,29
O=C(c1ccc(CSc2ccccc2)cc1)N1CCN(c2ccccc2)CC1,15
CCN(CC)S(=O)(=O)c1csc(C(=O)OCC(=O)c2ccccc2)c1,8
COCCCNC(=O)c1cc2c(=O)n3cc(C)ccc3nc2nc1NCC1CCCO1 (stereo unspecified),9
COCCOC(=O)c1c(C)oc2ccc(OCc3ccccc3)cc12,2
O=C(/C=C/Nc1ccc(Br)cc1F)c1ccccc1,15
CN1CCc2c(sc3c2C(=O)NC(c2ccccc2)N3)C1 (stereo unspecified),10
COc1ccccc1NS(=O)(=O)c1cc(NC(=O)Cn2cnc3c2c(=O)n(C)c(=O)n3C)ccc1C,8
CCOc1cc(/C=N\NC(=O)OC(C)(C)C)ccc1OC(=O)c1ccco1,11
O=C1CC(/C=C/c2ccccc2)(C(=O)NC2CCCC2)N1c1ccc(S(=O)(=O)N2CCCC2)cc1 (stereo unspecified),15
CCC(=O)N1CCN(c2ccc(NC(=O)COc3ccccc3[N+](=O)[O-])cc2)CC1,2
CC(C)CC1=NN(C(=O)c2ccco2)C(O)(C(F)(F)F)C1 (stereo unspecified),8
O=C(NCc1ccco1)c1ccc(N2CCCCC2)c([N+](=O)[O-])c1,16
Cc1ccc(NS(=O)(=O)c2cccc([N+](=O)[O-])c2)nc1,15
O=C(O)/C=C\C(=O)Nc1cccc(NC(=O)c2ccccc2)c1,5
Cc1ccc(CNC(=O)c2cccnc2Cl)cc1,8
CC(C)CC(=O)N1CCN(c2ccc([N+](=O)[O-])cc2Cl)CC1,10
NNC(=O)c1[nH]c2ccc(Cl)cc2c1-c1ccccc1,14
CC(=O)N1C=Cc2c(c(C)c3c([nH]c4ccccc43)c2C)C1,22

4 entries from above, as labelled records.
molecule: CC(C)CC1=NN(C(=O)c2ccco2)C(O)(C(F)(F)F)C1 (stereo unspecified)
  Biofilm kill mix: 8

molecule: CCC(=O)N1CCN(c2ccc(NC(=O)COc3ccccc3[N+](=O)[O-])cc2)CC1
  Biofilm kill mix: 2

molecule: O=C(NCc1ccco1)c1ccc(N2CCCCC2)c([N+](=O)[O-])c1
  Biofilm kill mix: 16

molecule: O=C1CC(/C=C/c2ccccc2)(C(=O)NC2CCCC2)N1c1ccc(S(=O)(=O)N2CCCC2)cc1 (stereo unspecified)
  Biofilm kill mix: 15

Continued.
mol,Biofilm kill mix
CC(C)Cc1nc2sc3c(SCC(N)=O)ncnc3c2c2c1CCC2,15
O=C(c1ccc2c(c1)OCCCO2)N1CCCCC1,14
COc1ccc(/C=C/CN2CCC(CO)(Cc3ccccc3Cl)CC2)cc1,9
CCOc1ccc(N(CC(=O)Nc2ccc(C)c(C)c2)S(=O)(=O)c2c(C)[nH]c(=O)[nH]c2=O)cc1,13
Cc1ccc2n(n1)c(=O)c(Cc1ccccc1)c([O-])[n+]2-c1ccccc1,14
CCCC(=O)NCCc1nc2ccccc2n1CC(=O)c1ccccc1,18
OCC1(Cc2ccccc2)CCN(C2CCN(c3ccc(F)c(F)c3)CC2)CC1,13
C=CCNC(=S)N1CCN(c2cccc(C(F)(F)F)c2)CC1,10
O=C(Cc1ccc(S(=O)(=O)N2CCCCC2)s1)Nc1cccc2ccccc12,12
COc1ccc(CN(C(=O)c2cc(=O)c3cc(C)cc(C)c3o2)C2CCS(=O)(=O)C2)cc1 (stereo unspecified),13
Cc1ccccc1-c1ccc(C(=O)NCc2ccccc2)o1,10
O=C(O)c1cc(Sc2ccc(Br)cc2)nc2ccccc12,19
Cc1cccc(C)c1NC(=S)N(CCN(C)C)Cc1cccs1,20
CC(NC(N)=O)C(=O)Nc1ccc(Cl)c(S(=O)(=O)Nc2ccc(Br)cc2)c1 (stereo unspecified),15
COc1ccc(-c2cc(C(=O)Nc3sc4c(c3C#N)CCCC4)c3ccccc3n2)cc1,4
CCOC(=O)c1sc2ccccc2c1OC(=O)c1ccc(C)cc1,12
O=C(CSc1ccc(F)cc1)NC1CCCCC1,-3
O=C(c1ccccc1)c1ccc(Sc2ccc([N+](=O)[O-])cc2)cc1,3
O=c1c(Cl)c(N2CCOCC2)cnn1-c1nc2ccccc2[nH]1,12
COc1ccccc1CC(=O)NC1CCC(C)CC1 (stereo unspecified),12
O=C(N/N=C/c1cccc2cccnc12)[C@H]1C[C@@H]1c1ccccc1,21
Cc1ccc(C(=O)c2c[nH]cc2-c2ccccc2)cc1,11
CC(C(=O)Nc1cc([N+](=O)[O-])ccc1Cl)N1CCN(c2ccccc2O)CC1 (stereo unspecified),6
N#Cc1c(-c2ccccc2)ccnc1N1CCOCC1,12
